Screens from PubChem.
PKD1 kinase inh – PKD1 (human) kinase inhibition; Q15139; PKD1 kinase fluorescence polarization assay; inhibition, %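 (about 10 µM by stock and volumes)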; 200,000 tested, 0.056% active;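 active = inhibition of 50% or more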;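 also: controls were vehicle for no effect and a reference inhibitor for full effect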
Target sequence (Q15139 whole entry, looked up): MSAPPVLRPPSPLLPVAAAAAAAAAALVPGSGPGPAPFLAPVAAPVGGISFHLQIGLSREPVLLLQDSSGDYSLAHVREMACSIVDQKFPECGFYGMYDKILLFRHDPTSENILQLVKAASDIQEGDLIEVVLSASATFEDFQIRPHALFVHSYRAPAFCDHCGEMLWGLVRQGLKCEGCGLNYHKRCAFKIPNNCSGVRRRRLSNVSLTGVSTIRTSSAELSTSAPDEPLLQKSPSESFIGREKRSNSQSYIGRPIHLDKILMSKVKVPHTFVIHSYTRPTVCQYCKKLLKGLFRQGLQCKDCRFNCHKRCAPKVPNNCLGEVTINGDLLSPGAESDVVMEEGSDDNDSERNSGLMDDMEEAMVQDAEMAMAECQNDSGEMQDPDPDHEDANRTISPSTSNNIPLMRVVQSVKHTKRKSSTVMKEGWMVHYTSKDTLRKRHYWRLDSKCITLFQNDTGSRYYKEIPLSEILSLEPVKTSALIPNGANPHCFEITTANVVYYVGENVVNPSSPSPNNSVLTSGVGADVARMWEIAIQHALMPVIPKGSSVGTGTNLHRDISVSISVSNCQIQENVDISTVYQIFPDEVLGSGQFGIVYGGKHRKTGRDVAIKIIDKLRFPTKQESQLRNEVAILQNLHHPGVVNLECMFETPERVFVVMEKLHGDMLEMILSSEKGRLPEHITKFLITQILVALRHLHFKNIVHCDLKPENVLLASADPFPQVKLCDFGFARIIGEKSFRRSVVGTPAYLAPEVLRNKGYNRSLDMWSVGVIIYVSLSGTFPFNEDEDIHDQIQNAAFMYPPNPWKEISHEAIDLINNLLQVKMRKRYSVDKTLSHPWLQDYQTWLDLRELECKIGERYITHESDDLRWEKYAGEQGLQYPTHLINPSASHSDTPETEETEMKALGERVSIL
HSV augment – increases HSV replication in cells; HSV replication augmentation in cells, fold increase; maximum fold increase; 220,000 tested, 0.005% active; AID 1956;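 active = peak rise of 1.5-fold or more in the series; inconclusive = self-fluorescent or not available for retest; tested in PC3 cells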;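 also: first round at 10 µM; read as green reporter fluorescence; hits show the peak of a series up to 25 µM; 1 = signal of infected wells without compound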
RGS16-Gao – regulators of human RGS16-Galphao interaction; 220,000 tested, 0.38% active; AID 1441; bead-based flow cytometry RGS16-Galphao binding, fluorescence; actives lie on both sides; binding response (% of control), % at 10 µM;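 active = below 25% or above 175%, edge rows of some plates excepted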;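 also: Galphao activated by GDP with aluminum fluoride before binding; 100% = wells without compound and 0% = beads without RGS; some results beyond the cut were filed as inactive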
GALR2 ag – activates the human galanin receptor 2. O43603. GALR2-expressing cells, agonist activation read-out. activation, %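 (tested at 5 µM)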. 140,000 tested, 0.48% active. AID 803;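 active = above mean plus 3 SD of all compounds, about 5% in these data, not always enough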;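 also: 0% = vehicle buffer wells and 100% = reference agonist at full effect; tested in CHO reporter cells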
Insulin prom inh – TRM-6 insulin promoter activity inhibition; 130,000 tested, 0.9% active; AID 1273; TRM-6 cells (human fetal islet line), insulin promoter-eGFP reporter, imaging; reporter expression induced with tamoxifen; inhibition, % at 2 µM;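 active = inhibition above the mean plus 3 SD, with well images judged a real hit on visual review, cut at about 60% in these data, passing the limit was not always enough; inconclusive = inhibition over the cutoff but images rejected on review; inactive = inhibition not above the cutoff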
Insulin prom inh cell count – also measured in Insulin prom inh; calls as there; normalized cell count, %; measured here: cell count, toxicity; reference of the scale not given here;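 cells exposed to compound for 48 h; stained nuclei by imaging scaled within each plate; lower means fewer cells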
HSV augment primary fold – second read-out of HSV augment, no call of its own (marks repeat the call); fold increase; compound at 10 µM; measured here: primary screen fold increase 10 uM; tested in PC3 cells;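 GFP signal in the first replicate; 1 = infected wells without compound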
Starred values were filed as active, the others as inactive; i = inactive; ? = inconclusive; . = not tested or not shown. Compounds as they come. About 1.3% of those tested had a hit in this group.

SMILES	PKD1 kinase inh	HSV augment	HSV augment primary fold	RGS16-Gao	GALR2 ag	Insulin prom inh	Insulin prom inh cell count
O=C(Oc1ccc2c(c1)O/C(=C\c1ccncc1)C2=O)c1ccccc1	6.4	?	.	102.1	1.1	.	.
Cc1ccc(C)c(OCC(=O)N/N=C/c2c(C)nn(-c3ccccc3)c2Cl)c1C	-7.2	i	0.54	109.8	0.4	-43.3	118.6
Cc1c(Cl)cccc1NC(=O)CN1CCN(CCO)CC1	-7.4	i	1.13	97.4	-4.0	56.2	118.6
CCSc1nnc(N)s1	-5.2	i	0.91	107.6	-1.5	.	.
CCOCCCNC(=O)C(c1ccc(Cl)cc1)N(Cc1cccs1)C(=O)CNC(C)=O (centres undefined)	-11.0	i	1.03	96.5	-0.5	-14.3	108.4
Cc1cc(C)c2nc(NNC(=O)c3cc(=O)c4ccccc4o3)sc2c1	-7.0	.	.	98.8	.	.	.
Cc1nc(N2CCN(C)CC2)c2sc(=S)n(C)c2n1	3.4	i	1.01	100.4	-1.3	.	.
O=C(O)Cc1coc(-c2ccc(F)cc2)n1	5.3	i	0.97	87.5	2.1	.	.
CN(C1CCCCC1)S(=O)(=O)c1cccc(C#N)c1	-3.7	i	1.08	97.9	.	-15.8	140.1
COCCn1nnnc1C(c1cccc(OC)c1OC)N1CCN(C2CCCCC2)CC1 (centres undefined)	-13.4	i	0.99	102.7	-2.7	62.5	70.7
Cc1ccc(C)c(/C=C/C(=O)c2ccccc(=O)c2O)c1	-1.5	i	0.98	89.6	-1.6	-207.1	30.4
CSC1=NC(C)(C)C=C(/C=C/c2c(Cl)cccc2Cl)N1	-4.6	.	.	102.2	.	-21.4	184.5
OCCN1CCN(C(=S)NCCc2ccccc2)CC1	-8.3	i	1.05	101.3	-2.1	30.4	74.8
c1ccc(OCc2nn3c(Cn4nnc5ccccc54)nnc3s2)cc1	-11.3	i	1	83.1	-0.9	.	.
COC(=O)c1c(-c2cccc3ccccc23)csc1NC(=O)Cc1ccc(OC)c(OC)c1	-2.7	i	0.93	105.0	-1.0	1.7	98.2
N#Cc1cc2c(nc1SCC(=O)Nc1sc3c(c1C#N)CCC3)CCC2	-10.4	i	1.3	107.7	-3.1	20.9	104.8
CC(=O)Nc1ccc(S(=O)(=O)N2CCN(C34CC5CC(CC(C5)C3)C4)CC2)cc1	-5.7	i	1.06	113.3	1.5	14.3	174.6
CC(/C=N\N1CCN(Cc2ccc(C)cc2)CC1)=C\c1ccccc1	-6.5	i	0.98	108.7	0.4	6.7	89.5
Cc1oc(-c2ccccc2)cc1C(=O)Nc1cccc(C(=O)O)c1	1.6	i	0.79	8.3	-2.5	68.2	67.8
O=C(c1ccc(F)cc1)c1ccc(CN2C(=O)c3ccccc3C2=O)o1	-5.2	i	1.15	101.2	.	.	.
COc1cccc(CN2CCN(C(=O)c3ccco3)CC2)c1OC	-7.8	i	1.07	.	0.6	-50.0	84.7
O=C(NCCCN1CCOCC1)C(=O)N/N=C/c1ccccc1	-6.3	i	0.97	127.2	-0.8	-46.7	66.7
Clc1ccccc1/C=C/C=N/Nc1nc(N2CCOCC2)nc(N2CCOCC2)n1	-0.2	i	0.98	94.8	.	.	.
O=Cc1c(Cl)nc2ccccn2c1=O	.	i	1.14	101.7	.	.	.

Some of the entries above in a different format:
compound | PKD1 kinase inh | HSV augment | HSV augment primary fold | RGS16-Gao | GALR2 ag | Insulin prom inh | Insulin prom inh cell count
Cc1cc(C)c2nc(NNC(=O)c3cc(=O)c4ccccc4o3)sc2c1 | -7.0 | . | . | 98.8 | . | . | .
O=C(c1ccc(F)cc1)c1ccc(CN2C(=O)c3ccccc3C2=O)o1 | -5.2 | i | 1.15 | 101.2 | . | . | .
COC(=O)c1c(-c2cccc3ccccc23)csc1NC(=O)Cc1ccc(OC)c(OC)c1 | -2.7 | i | 0.93 | 105.0 | -1.0 | 1.7 | 98.2
Cc1c(Cl)cccc1NC(=O)CN1CCN(CCO)CC1 | -7.4 | i | 1.13 | 97.4 | -4.0 | 56.2 | 118.6
CN(C1CCCCC1)S(=O)(=O)c1cccc(C#N)c1 | -3.7 | i | 1.08 | 97.9 | . | -15.8 | 140.1

Going on with the list:
SMILES	PKD1 kinase inh	HSV augment	HSV augment primary fold	RGS16-Gao	GALR2 ag	Insulin prom inh	Insulin prom inh cell count
C=CCn1c(SCC(=O)Nc2ccccc2)nc2scc(-c3cccs3)c2c1=O	-3.8	i	0.953	101.4	-2.5	.	.
CCN(CC)C(=O)CSc1ncnc2sc(-c3ccccc3)cc12	-7.4	i	0.82	101.8	-1.6	-14.3	59.4
Cc1ccc(S(=O)(=O)NC(=O)Nc2ccccc2)cc1	9.2	i	1.04	88.7	.	57.1	93.1
O=c1[nH]c(=O)n(Cc2ccco2)c2c1C(C(F)(F)F)(C(F)(F)F)N=C(CCc1ccccc1)N2	-8.6	i	0.83	74.9	0.4	5.7	54.2
CC(C)n1cnc2c(NCc3ccc(S(N)(=O)=O)cc3)nc(NCc3ccc(S(N)(=O)=O)cc3)nc21	.	i	0.94	105.2	.	.	.
Cc1nnc(C)n1/N=C/c1cccn1C	-8.4	i	0.88	109.3	0.0	5.6	122.0
Cc1ccc(N2CC(C(=O)Nc3ccc(S(=O)(=O)Nc4nccs4)cc3)CC2=O)cc1 (centres undefined)	-0.9	i	1.04	108.8	.	.	.
O=C(O)C1=C[C@H](c2csc3ccccc23)C[C@H](OCCCCO)O1	4.3	i	0.89	105.7	.	.	.
O=C(CSc1ncnc2ccccc12)Nc1ccc2c(c1)OCO2	-13.9	i	1.02	100.9	-2.1	.	.
CCCCc1ccc(NC(=S)Nc2cccnc2)cc1	15.1	i	0.94	105.0	-0.8	.	.
Cc1ccc(NC(=O)OCc2cn(-c3ccc(Cl)cc3)nn2)cc1	-7.6	.	.	96.2	-0.1	.	.
CCNc1nc(CC)nc2c1oc1ccccc12	26.1	i	0.92	114.5	-1.9	.	.
CCOc1ccc(C(=O)N2CCc3cc(OC)c(OC)cc3C2)cc1OCC	-6.7	i	0.81	99.8	0.0	5.9	124.1
c1ccc(N2CCN(c3nnc(Cc4cccnc4)c4ccccc34)CC2)nc1	-6.4	i	0.69	95.5	-3.1	.	.
c1ccc(CN=C2NN=C(c3cc4ccccc4o3)CS2)cc1	-7.7	i	1.03	105.0	-1.2	30.0	91.2
O=C(Cc1ccc(Cl)cc1)Nc1cccc(-c2nnc(-c3ccco3)o2)c1	-13.6	i	0.88	118.2	-0.3	.	.
CC1SCC(=O)N(CC(=O)Nc2ccc3c(c2)OCO3)C1=O (centres undefined)	-4.4	i	0.9	103.8	-0.3	.	.
CN(C(=O)CSc1nc2ccc(Br)cc2c(=O)n1Cc1ccco1)C1CCS(=O)(=O)C1 (centres undefined)	.	i	1.11	104.0	.	.	.
CC1=C(C)C(OCCCl)N(c2cc(O)c(Cl)cc2F)C1=O (centres undefined)	.	i	0.86	86.2	.	.	.
CCN(C(=O)Cc1ccc(Br)cc1)C1CCCCC1	-1.8	i	1.09	93.3	-2.1	-5.4	178.3
COc1ccc(N(C)S(=O)(=O)c2cccc(C(=O)Nc3ccc(-n4cnnn4)cc3)c2)cc1	-6.1	i	0.84	100.1	-4.1	.	.
CCCNC(=S)N1CCC(C(=O)c2ccc(OC)cc2)CC1	5.1	i	1.21	108.7	-0.3	10.2	135.4
CCC(CC)c1nnc(NC(=O)c2cc(C(=O)OC)cc([N+](=O)[O-])c2)s1	-5.3	i	1.04	98.0	-2.0	27.8	102.3
CN1CCN(c2ccccc2NC(=O)c2ccccc2F)CC1	.	i	1.08	94.6	.	.	.
O=C1Cn2c(nc3ccccc32)-c2ccccc2N1	-6.7	i	0.79	98.9	-2.0	-7.1	159.9
CCOc1ccc(N(CC(=O)NC(C(C)C)C(C)C)S(=O)(=O)c2ccc(OC)c(OC)c2)cc1	2.6	i	0.98	104.5	.	.	.
CCCCOc1ccc(N2C(=O)CC(NCCc3ccc(S(N)(=O)=O)cc3)C2=O)cc1 (centres undefined)	-3.8	i	0.82	111.4	-0.9	-29.2	96.2
O=S(=O)(Cc1ccc(Cl)cc1)Nc1ccc2c(c1)OCO2	-6.2	i	1	100.7	-1.6	63.0	158.4
CC(C)NC(=O)C1CCN(C2CCN(Cc3cn[nH]c3-c3ccccc3)CC2)CC1	-2.0	i	0.98	121.1	.	35.7	85.9
Cc1onc(-c2ccccc2Cl)c1C(=O)NCc1cccs1	5.2	i	0.96	103.0	-0.9	.	.
COC(=O)C1=C(C)N(C)C(=O)/C1=C\c1ccco1	7.7	i	1.1	103.4	-0.3	.	.
CCOc1ccc(N2C(=O)C3Sc4[nH]c(=O)sc4C(c4ccc(OC)c(OC)c4)C3C2=O)cc1 (centres undefined)	.	i	0.95	93.8	.	.	.
Nc1nc(-c2ccc(-c3ccccc3)cc2)cs1	-6.0	i	0.81	113.0	.	.	.
COc1ccc(-c2cc(C(=O)Nc3ccc(S(=O)(=O)Nc4onc(C)c4C)cc3)c3ccccc3n2)cc1OC	.	i	0.88	99.3	.	.	.
Cc1ccccc1Cn1c(=O)n(CCCC(=O)NCc2ccco2)c(=O)c2ccccc21	-9.3	i	0.86	99.8	-1.4	-3.9	88.6
N#C/C(=C/c1ccc(C(=O)O)cc1)C(=O)NCc1ccccc1	-10.8	i	1.01	101.1	-2.2	-22.2	51.6
O=[N+]([O-])c1ccc([C@H](O)[C@H](CO)N=Cc2ccccc2O)cc1	-5.4	i	0.98	104.2	0.1	-50.0	73.9
CCOc1ccc(C(=O)Nc2ccc(C(F)(F)F)n(C)c2=O)cc1	5.0	i	1	51.7	-1.6	21.4	101.1
CC(C)CNC(=O)c1cc2nc3c(c(C(F)(F)F)n2n1)CCc1ccccc1-3	1.0	i	0.89	97.7	-1.0	-6.7	130.8
O=C(NN1C(=O)C2C3CCC(O3)C2C1=O)c1ccc(Cl)cc1 (centres undefined)	-4.3	i	0.78	99.3	-1.2	46.9	99.6
CCN(CC)c1ccc(CC(=O)NC(C)Cc2ccccc2)cc1 (centres undefined)	-19.8	i	1.02	98.3	0.0	8.7	114.3
O=c1c(Cc2ccc(Cl)cc2)c(O)ccn1Cc1ccncc1	5.6	i	0.9	100.6	.	.	.
CCOc1ccccc1CN1CCN(Cc2ccc(C)o2)CC1CCO (centres undefined)	-8.6	i	0.99	108.6	.	.	.
CCC(CC)NC(=O)C1CCN(S(=O)(=O)c2cccs2)CC1	1.0	i	0.71	103.2	-2.2	-10.0	116.9
Cc1ccccc1-n1cc(CNC(=O)CCc2nnc(CCc3ccccc3)o2)cn1	-4.1	i	0.96	106.9	.	.	.
Cc1nc(Cc2ccc(OC(C)C)cc2)[nH]c(=O)c1CC(=O)O	-4.9	i	1.08	102.4	.	0.0	118.1
Cc1nc(C(F)(F)F)c(C(=O)N/N=C(\N)c2cccnc2)s1	6.2	i	1.07	101.4	.	.	.
CCc1nc(SCc2ccc(C(=O)OC)o2)c2c(=O)n(C)c(=O)n(C)c2n1	-0.8	i	0.96	100.3	-2.0	.	.
Cc1cc(C)n2c(SCc3ccccc3Cl)nnc2n1	-1.2	i	0.77	102.6	-1.5	0.0	224.0
COCC(=O)OCC(=O)c1cc(C)n(-c2ccc(Br)cc2)c1C	3.9	i	0.95	100.3	.	.	.
CCc1ccccc1NC(=S)N1N=CCC1c1ccccc1 (centres undefined)	-1.4	i	0.77	96.6	.	.	.
C=CCSc1ncccc1C(=O)NCc1ccc(C)cc1	-3.6	i	0.87	105.9	-0.4	-38.5	93.3
CN1CCN(CC(=O)N2N=C(c3cccs3)CC2c2ccco2)CC1 (centres undefined)	-8.1	i	0.96	105.8	-1.7	15.4	108.8
CCN(CC)C(=O)c1sc(N2C(=O)Nc3ccccc3N2O)c(C(=O)OC)c1C	-2.5	i	1	101.8	.	-42.9	123.7
Cc1ccc(Nc2nc(NCC3CCCO3)nc(N)c2[N+](=O)[O-])cc1C (centres undefined)	-1.6	i	0.91	105.5	0.8	-4.6	119.7
C/C(Cl)=C\Cn1c(O)c(N=NC(N)=S)c2cc(Br)ccc21	8.2	i	0.97	106.5	.	-6.7	98.2
CC(NC(=O)C1CC2CCCC(C1)C2=O)c1ccccc1 (centres undefined)	-10.3	i	0.93	102.4	-1.4	66.7	91.1
COc1cc(CN2CCNC(=O)C2CC(=O)N2CCc3ccccc3C2)cc(OC)c1 (centres undefined)	4.4	i	1.02	102.4	.	-75.0	29.6
O=C(NCc1ccc(Cl)cc1)c1cc2ccccn2n1	6.1	i	0.94	108.8	-3.6	.	.
